# Bioassay records deposited in PubChem by The Scripps Research Institute Molecular Screening Center.
# TAAR1 agonist: agonists of human TAAR1; Q96RJ0; CHO RD-HGA16 TAAR1, Fluo-8 calcium fluorescence; vehicle wells 0%, saturating PEA agonist 100%; activation, % at 3 µM; hit rate 0.99% among 360,000; AID 624467;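 active means activation above the mean activation of all test compounds in the run plus 3 SD, cut at about 38% in these data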
# Target sequence (Q96RJ0 whole entry, looked up): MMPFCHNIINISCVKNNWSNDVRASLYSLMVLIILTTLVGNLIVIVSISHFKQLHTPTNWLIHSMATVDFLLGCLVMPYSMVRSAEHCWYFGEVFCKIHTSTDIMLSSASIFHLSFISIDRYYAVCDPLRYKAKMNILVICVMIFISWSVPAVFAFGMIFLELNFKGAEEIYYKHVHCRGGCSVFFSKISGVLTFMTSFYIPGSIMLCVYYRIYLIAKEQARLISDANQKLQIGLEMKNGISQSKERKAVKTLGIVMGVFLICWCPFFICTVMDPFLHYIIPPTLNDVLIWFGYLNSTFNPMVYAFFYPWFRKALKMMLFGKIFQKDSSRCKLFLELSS
#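 test system = CHO RD-HGA16 cells carrying human TAAR1 plus Gα16 | schedule = 17-24 h seeding, 75 min 37 °C dye, 30 min RT | compound dosing = 3 µM single concentration | control set = DMSO and PEA EC100 | replicates = n 1 | signal = Fluo-8 fluorescence, 5 s baseline then 140 s kinetic read | measure = percent activation vs PEA EC100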
# CHO parental Ca: counter-screen for OX1R antagonists: effect in parental CHO cells | parental CHO-K1, ATP-induced calcium, Fluo-8 fluorescence | inhibition, % at 5.6 µM | hit rate 0.63% among 330,000;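 active means inhibition above that plate's mean sample inhibition plus 3 SD, cut at about 26% in these data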;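 further: 0% = ATP-challenged DMSO wells and 100% = DMSO wells without ATP; some compounds past the cut are filed as inactive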
#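 Test system: untransfected parental CHO cell line. Compound: one dose, 5.6 µM nominal. Detection: intracellular calcium via Fluo-8 no-wash fluorescent dye. Measure: % inhibition. Benchmarks: ATP-challenged DMSO wells low, unchallenged DMSO wells high.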
# TAAR1 antag: antagonists of human TAAR1; Q96RJ0; CHO RD-HGA16 TAAR1, Fluo-8 calcium fluorescence, antagonist; inhibition, % at 3 µM; hit rate 1.5% among 360,000;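 active means inhibition above a per-plate cutoff, the mean inhibition of test compounds on that plate plus 3 SD, cut at about 49% in these data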;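 further: 0% = DMSO plus EC80 beta-PEA response and 100% = DMSO alone without agonist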
#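 Material: RD-HGA16 CHO cells with stable hTAAR1 and Gα16; Dosing: single nominal final test compound concentration of 3 µM; Schedule: seeding 17-24 h prior, 75-min 37 °C, 30-min RT dye loading; Detection: kinetic Fluo-8 calcium fluorescence measurement; Measure: % inhibition from peak post-agonist over basal fluorescence ratio; Benchmarks: vehicle and agonist controls.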
# * hit, by the source's call; . = no result given; & = joins results of further samples.
no.	Compound	TAAR1 agonist	CHO parental Ca	TAAR1 antag
1	COc1cc([C@@H]2c3cc4c(cc3[C@H](O)[C@H]3COC(=O)[C@H]23)OCO4)cc(OC)c1OC	-0.1	-15.7	6.8
2	CC12CCC(=O)C=C1CCC1C2C(=O)CC2(C)C1CCC2(O)C(=O)CO (configuration not stated)	1.3	-0.8	0.1
3	C/C(=C(/CCO)SSCC1CCCO1)N(C=O)Cc1cnc(C)nc1N (configuration not stated)	1.9	2.6	-26.1
4	CN1CCC(OC(c2ccccc2)c2ccccc2)CC1	2.5	-9.9	-8.3
5	CC[C@H]1CN2CCc3cc(OC)c(OC)cc3C2C[C@@H]1C[C@H]1NCCc2cc(OC)c(OC)cc21 (some centres not stated)	1.3	-17.4	0.2
6	CN(Cc1cnc2nc(N)nc(N)c2n1)c1ccc(C(=O)N[C@@H](CCC(=O)O)C(=O)O)cc1	0.5&-0.3	9.7&1.3	0.8&-1.9
7	CN(C)CC/C=C1\c2ccccc2CSc2ccccc21	6.6	-19.6	-15.2
8	Nc1n[nH]c(CO)n1	-0.5	.	-1.0
9	CC(C)(C)NCC(O)c1cc(O)cc(O)c1 (configuration not stated)	0.6	0.1	-9.4
10	CC(=O)OC[C@H]1O[C@@H](n2ncc(=O)[nH]c2=O)[C@H](OC(C)=O)[C@@H]1OC(C)=O	.	4.7	.
11	CC1CC2C3CCC4=CC(=O)C=CC4(C)[C@@]3(Cl)C(O)CC2(C)C1(O)C(=O)CO (some centres not stated)	1.7	-3.2	4.4
12	CC(C)(C)NC(=O)[C@@H]1CN(Cc2cccnc2)CCN1C[C@@H](O)C[C@@H](Cc1ccccc1)C(=O)N[C@H]1c2ccccc2C[C@H]1O	-1.1	-9.8	-13.9
13	OC[C@@H](O)[C@@H](O)[C@H](O)[C@H](O)CO	5.6	2.6	-20.1
14	COC(=O)[C@H](Cc1ccccc1)NC(=O)[C@@H](N)CC(=O)O	0.3	-7.1	4.7
15	C[C@]12CCC(=O)C=C1CC[C@@H]1[C@@H]2[C@@H](O)C[C@@]2(C)[C@H]1CC[C@]2(O)C(=O)CO	0.0&0.7	-7.1&6.2	-18.0&-19.7
16	CC(C)NCC(O)c1ccc(O)c(O)c1 (configuration not stated)	6.0	-0.1	-25.5
17	CC1(C)SC2C(NC(=O)COc3ccccc3)C(=O)N2C1C(=O)O (configuration not stated)	0.1&1.7	-9.4&-9.9	8.7&-1.1
18	O=c1cc(-c2ccccc2)oc2ccc3ccccc3c12	4.5	.	24.3
19	CC[C@H]1CN2CCc3cc(OC)c(OC)cc3[C@@H]2C[C@@H]1C[C@H]1NCCc2cc(OC)c(OC)cc21	.	-9.9	.
20	COc1cc(C2c3cc4c(cc3C(O)C3COC(=O)C23)OCO4)cc(OC)c1OC (configuration not stated)	4.7	.	13.4
21	S=P(N1CC1)(N1CC1)N1CC1	1.7	-6.3	-10.0
22	CN1C(=O)OC(C)(C)C1=O	.	-9.2	.
23	Cc1cn(C2C=CC(CO)O2)c(=O)[nH]c1=O (configuration not stated)	-1.3	4.3	16.9
24	CC12C=CC(=O)C=C1CCC1C2C(O)CC2(C)C1CCC2(O)C(=O)CO (configuration not stated)	1.7	.	-13.8
25	CCN1CCN(c2cc3c(cc2F)c(=O)c(C(=O)O)cn3C2CC2)CC1	2.4	6.5	-10.6

# Carrying on.
no.	Compound	TAAR1 agonist	CHO parental Ca	TAAR1 antag
26	COc1c(C)c2c(c(O)c1C/C=C(\C)CCC(=O)O)C(=O)OC2	1.5	-2.5	-14.1
27	CO[C@@]1(NC(=O)CSCC#N)C(=O)N2C(C(=O)O)=C(CSc3nnnn3C)CS[C@@H]21	-0.3	-4.8	-18.1
28	O=C(/C=C/c1ccc(O)c(O)c1)OCCc1ccccc1	13.2	24.4	16.7
29	Cc1cccc(Nc2ccccc2C(=O)O)c1C	-1.5	-1.4	-27.6
30	CC1(C)O[C@@H]2C[C@H]3[C@@H]4C[C@H](F)C5=CC(=O)CC[C@]5(C)[C@H]4[C@@H](O)C[C@]3(C)[C@]2(C(=O)CO)O1	2.4	11.1	-2.2
31	O=NN(CCCl)C(=O)NCCCl	7.0	-4.7	-8.6
32	Cc1ncc([N+](=O)[O-])n1CC(O)CCl (configuration not stated)	0.0	-12.3	-21.0
33	O=C1CC[C@H](N2C(=O)c3ccccc3C2=O)C(=O)N1	7.0	-3.0	-24.6
34	CC[C@H](C)C(=O)O[C@H]1C[C@@H](C)C=C2C=C[C@H](C)[C@H](CC[C@@H]3C[C@@H](O)CC(=O)O3)[C@H]21	1.0&-0.6	-20.8&-38.1	-7.5&-29.3
35	Nc1nnc(-c2cccc(Cl)c2Cl)c(N)n1	0.6	4.1	9.8
36	c1ccc([C@H]2CN3CCSC3=N2)cc1	-0.5	-20.7	7.7
37	Nc1nc2ccc(OC(F)(F)F)cc2s1	4.5	-3.2&0.2	-20.9
38	CC(=O)NCCc1c[nH]c2ccc(OCC(O)CNC(C)(C)C)cc12 (configuration not stated)	3.9	-6.2	-20.4
39	C[N+](C)(C)CCOC(N)=O	1.5	-4.1	-26.9
40	COc1ccc(C[C@H](N)C(=O)N[C@H]2[C@@H](O)[C@H](n3cnc4c(N(C)C)ncnc43)O[C@@H]2CO)cc1	-0.1	-7.7	-11.6
41	COC(=O)C1=COC(C)C2CN3CCc4c([nH]c5cc(OC)c(OC)cc45)C3CC12 (configuration not stated)	2.5	-8.2	-30.4
42	CC(C)(Oc1ccc(Cl)cc1)C(=O)O	1.4	-12.5	-21.0
43	COC(=O)CCC(=O)CN	3.2	-7.6	-20.4
44	O=C(O)CC(O)(CC(=O)O)C(=O)O	0.4	-0.6	6.6
45	CC(=O)OCC(=O)[C@@]1(OC(C)=O)[C@@H](C)C[C@H]2[C@@H]3C[C@H](F)C4=CC(=O)C=C[C@]4(C)[C@@]3(F)[C@@H](O)C[C@@]21C	2.8	-3.6	0.2
46	O=c1[nH]cc(F)c(=O)[nH]1	1.4	11.8	-11.2
47	OC1C(O)C(O)C(O)C(O)C1O (configuration not stated)	2.8&1.9&3.8	0.5&1.8&-5.8	-15.2&1.3&-8.0
48	CO[C@H]1/C=C/O[C@@]2(C)Oc3c(C)c(O)c4c(O)c(c(C=NN5CCN(C)CC5)c(O)c4c3C2=O)NC(=O)/C(C)=C\C=C\[C@H](C)[C@H](O)[C@@H](C)[C@@H](O)[C@@H](C)[C@H](OC(C)=O)[C@@H]1C	0.4	-16.8	-24.4
49	C[C@@](Cc1ccc(O)c(O)c1)(NN)C(=O)O	4.0	.	-0.4
50	CC12CCC(=O)C=C1CCC1C2C(=O)CC2(C)C1CC[C@]2(O)C(=O)CO (some centres not stated)	1.5	-6.3	-4.3

# Going on with the list.
no.	Compound	TAAR1 agonist	CHO parental Ca	TAAR1 antag
51	N[C@@H](Cc1ccc(F)cc1)C(=O)O	2.5	.	-22.5
52	Cc1c(C)c2c(c(C)c1O)CC[C@@](C)(CCC[C@H](C)CCC[C@H](C)CCCC(C)C)O2	1.7	-7.8	-8.4
53	CN(C)CCC(c1ccc(Cl)cc1)c1ccccn1 (configuration not stated)	0.8&0.5	-10.7&-7.2&-10.9	-4.8&-4.0
54	CC(C)C(=O)Nc1ccc([N+](=O)[O-])c(C(F)(F)F)c1	5.5	-11.2	-11.3
55	CN(C)C(=O)Oc1ccc[n+](C)c1	1.7	2.0	-11.3
56	CCCCOc1ccc(OCCCN2CCOCC2)cc1	4.3	0.4	-6.2
57	CC(C)NCC(O)c1cc(O)cc(O)c1 (configuration not stated)	0.3	-9.5	-3.7
58	OC[C@@H](O)[C@@H](O)[C@H](O)[C@@H](O)CO	1.0	-5.7	-7.0
59	Fc1ccc(C(c2ccc(F)cc2)N2CCN(C/C=C/c3ccccc3)CC2)cc1	-0.4	-44.4	-18.1
60	CC(=O)[C@@]1(O)CC[C@H]2[C@@H]3C[C@H](C)C4=CC(=O)CC[C@]4(C)[C@H]3CC[C@@]21C	0.9	-6.3	-8.4
61	Oc1c(Cl)cc(Cl)c(Cl)c1Cc1c(O)c(Cl)cc(Cl)c1Cl	3.0	70.6*	46.2
62	Cc1ccc(NC(=O)c2ccc(CN3CCN(C)CC3)cc2)cc1Nc1nccc(-c2cccnc2)n1	4.5	-11.6	-23.4

# Shown with two lines to a compound: 15 of the compounds above.
# Values run as follows: TAAR1 agonist, CHO parental Ca, TAAR1 antag
48	CO[C@H]1/C=C/O[C@@]2(C)Oc3c(C)c(O)c4c(O)c(c(C=NN5CCN(C)CC5)c(O)c4c3C2=O)NC(=O)/C(C)=C\C=C\[C@H](C)[C@H](O)[C@@H](C)[C@@H](O)[C@@H](C)[C@H](OC(C)=O)[C@@H]1C
  0.4, -16.8, -24.4
49	C[C@@](Cc1ccc(O)c(O)c1)(NN)C(=O)O
  4.0, ., -0.4
50	CC12CCC(=O)C=C1CCC1C2C(=O)CC2(C)C1CC[C@]2(O)C(=O)CO (some centres not stated)
  1.5, -6.3, -4.3
51	N[C@@H](Cc1ccc(F)cc1)C(=O)O
  2.5, ., -22.5
52	Cc1c(C)c2c(c(C)c1O)CC[C@@](C)(CCC[C@H](C)CCC[C@H](C)CCCC(C)C)O2
  1.7, -7.8, -8.4
53	CN(C)CCC(c1ccc(Cl)cc1)c1ccccn1 (configuration not stated)
  0.8&0.5, -10.7&-7.2&-10.9, -4.8&-4.0
54	CC(C)C(=O)Nc1ccc([N+](=O)[O-])c(C(F)(F)F)c1
  5.5, -11.2, -11.3
55	CN(C)C(=O)Oc1ccc[n+](C)c1
  1.7, 2.0, -11.3
56	CCCCOc1ccc(OCCCN2CCOCC2)cc1
  4.3, 0.4, -6.2
57	CC(C)NCC(O)c1cc(O)cc(O)c1 (configuration not stated)
  0.3, -9.5, -3.7
58	OC[C@@H](O)[C@@H](O)[C@H](O)[C@@H](O)CO
  1.0, -5.7, -7.0
59	Fc1ccc(C(c2ccc(F)cc2)N2CCN(C/C=C/c3ccccc3)CC2)cc1
  -0.4, -44.4, -18.1
60	CC(=O)[C@@]1(O)CC[C@H]2[C@@H]3C[C@H](C)C4=CC(=O)CC[C@]4(C)[C@H]3CC[C@@]21C
  0.9, -6.3, -8.4
61	Oc1c(Cl)cc(Cl)c(Cl)c1Cc1c(O)c(Cl)cc(Cl)c1Cl
  3.0, 70.6*, 46.2
62	Cc1ccc(NC(=O)c2ccc(CN3CCN(C)CC3)cc2)cc1Nc1nccc(-c2cccnc2)n1
  4.5, -11.6, -23.4

# Sorted by length of the SMILES (rising): 3 of the compounds above.
no.	Compound	TAAR1 agonist	CHO parental Ca	TAAR1 antag
51	N[C@@H](Cc1ccc(F)cc1)C(=O)O	2.5	.	-22.5
54	CC(C)C(=O)Nc1ccc([N+](=O)[O-])c(C(F)(F)F)c1	5.5	-11.2	-11.3
62	Cc1ccc(NC(=O)c2ccc(CN3CCN(C)CC3)cc2)cc1Nc1nccc(-c2cccnc2)n1	4.5	-11.6	-23.4

# A portion of the library; count on the stated rates, not on these rows.
